Yeast UUG start: modulators of yeast start codon fidelity, primary screen, whole organism, S. cerevisiae, single point, plate reader; S. cerevisiae UUG-firefly luciferase reporter, luminescence/redox ratio; activity score, % at 18.7 µM; actives 0.13% (n = 350,000);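 active = replicate mean at a twofold rise or more, about +100% in these data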;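 also: firefly luciferase made from a UUG start codon reports start codon fidelity; reporter light over untreated wells divided by growth signal over untreated wells; some hits fall short of that in this replicate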
MT1-MMP act inh: blockers of MT1-MMP proenzyme processing, primary screen, HT1080 RFP-PRO-GFP cells, GFP/RFP fluorescence. Matrix metalloproteinase-14 (Homo sapiens), P50281. AID 651647, 2012. GFP/RFP ratio change, % at 20 µM. GFP/RFP ratio fluorescence, overnight; percent of plate control window, DMSO zero. actives 0.061% (n = 360,000);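 active = GFP/RFP ratio change of at least 30% with cell ATP level not reduced by more than half and red fluorescence within 50% of control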; also: strong numbers were not always called active
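Material: RFP-PRO-GFP reporter HT1080 cells. Dosing: single-point 20 µM compound, 1% DMSO. Controls: DMSO and RFP-L50D-GFP cell wells. Timing: cells overnight before dosing, compound overnight, 37 °C, 5% CO2. Measure: GFP/RFP fluorescence ratio.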
CSC inhib: cancer stem cell viability inhibitors, primary screen, luminescence; inhibition, % at 7.5 µM; actives 1.1% (n = 300,000); cancer stem cell-like cells viability;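 active = mean at 75% or more and at least half the replicates too; tested in HMLE shEcad cells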;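 also: 0% = median of negative and 100% = median of positive control wells; the first replicate is given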
PABP FP inh: PABP poly(A) RNA binding inhibitors, primary screen, biochemical, fluorescence polarization, uHTS. Polyadenylate-binding protein 1 (Homo sapiens), P11940. inhibition, % at 35 µM. actives 1% (n = 290,000). AID 2014, 2009;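 active = 50% or more with normal probe brightness, or confirmed in later tests; about a fifth of its hits are not listed in these tables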;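 also: calls also rest on retests at 20 µM and on dose response follow-up; controls were probe without protein and protein plus probe with vehicle; some compounds called inactive have numbers as strong as hits; many hits fall short of the cut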
Target sequence (P11940 whole entry, looked up): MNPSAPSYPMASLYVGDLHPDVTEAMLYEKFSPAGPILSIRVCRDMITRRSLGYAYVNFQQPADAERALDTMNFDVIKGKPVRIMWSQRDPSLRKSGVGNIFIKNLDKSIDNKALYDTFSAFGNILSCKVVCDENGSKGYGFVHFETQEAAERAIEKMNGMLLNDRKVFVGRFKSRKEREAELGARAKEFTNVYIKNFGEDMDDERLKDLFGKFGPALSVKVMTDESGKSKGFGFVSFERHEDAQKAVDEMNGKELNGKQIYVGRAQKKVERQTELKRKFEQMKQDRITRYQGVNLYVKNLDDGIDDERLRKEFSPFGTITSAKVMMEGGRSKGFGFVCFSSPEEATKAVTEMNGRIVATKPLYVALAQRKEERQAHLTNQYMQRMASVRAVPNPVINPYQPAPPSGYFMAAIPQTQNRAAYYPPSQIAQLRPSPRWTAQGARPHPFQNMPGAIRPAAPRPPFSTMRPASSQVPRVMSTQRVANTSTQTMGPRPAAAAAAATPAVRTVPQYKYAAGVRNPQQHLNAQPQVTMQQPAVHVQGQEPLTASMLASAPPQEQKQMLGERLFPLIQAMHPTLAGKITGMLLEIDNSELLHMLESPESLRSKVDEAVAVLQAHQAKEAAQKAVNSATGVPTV
HIV Env fusion: inhibitors of HIV-1 Env-driven cell-cell fusion, primary screen, HeLa-JRFL effector, CEM21 target cells, luciferase; inhibition, % at 12.3 µM; actives 1.1% (n = 360,000);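 active = mean replicate inhibition score of at least 50 and every replicate individually at or above 50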;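 also: 0% = plate neutral controls and 100% = maraviroc near 300 nM; one replicate is shown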
Rce1 inh: yeast Rce1p protease inhibitors, primary screen, biochemical, fluorescence, cell-free homogeneous | CAAX prenyl protease 2 (Saccharomyces cerevisiae (strain ATCC 204508 / S288c)), Q03530 | actives 0.27% (n = 290,000) | calls only | yeast membranes, quenched prenylated peptide cleavage fluorescence;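 active = fall in fluorescence gain of 50% or more versus controls, with final raw signal at or below 3038400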;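 also: plate controls were neutral control wells for no effect and wells lacking membranes for full effect; tested at 10 µM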
eIF4H FP inh: human eIF4H binding inhibitors, primary screen, translation initiation inhibitor project, biochemical, uHTS, fluorescence polarization. Eukaryotic translation initiation factor 4H (Homo sapiens), Q15056. eIF4H fluorescence polarization binding assay. inhibition, % at 35 µM. actives 0.94% (n = 290,000). AID 2012, 2009;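 active = 50% or more with normal probe brightness, or confirmed in later tests; about a fifth of its hits are not listed in these tables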;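 also: calls also rest on retests at 20 µM and on dose response follow-up; 0% = protein and probe with vehicle and 100% = probe without protein; strong numbers were not always called active; many hits fall short of the cut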
MT1-MMP act inh RFP: recorded beside MT1-MMP act inh, whose call it bears; RFP signal change, %; measured here: RFP expression control read;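 0 = vehicle wells; hits needed this value within 50% of zero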
Active calls of the source: *; i = inactive. This is a subset (hit frequency here may not be typical).

SMILES	Yeast UUG start	MT1-MMP act inh	MT1-MMP act inh RFP	CSC inhib	PABP FP inh	HIV Env fusion	Rce1 inh	eIF4H FP inh
O=C(CCN1CCN(CCO)CC1)N1c2ccccc2Sc2ccc(C(F)(F)F)cc21	-23	2	4	9	-2	-5	i	2
